# rRNA inh HTS: inhibits bacterial ribosomal RNA function over humanized ribosomes; E. coli WT GFP vs humanized-ribosome RFP mutants, fluorescence, 24 h; stronger effect = lower value; DMSO median 0, no signal -100; GFP signal change (wild-type ribosome), % (concentration not given with the values); 350,000 compounds, 1.6% hits; AID 720706;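 active = significant combined selectivity score with lowered wild-type GFP, culture density cut under 30%, mutant RFP and density less affected; inactive = any of these conditions unmet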; note: one replicate is shown; some compounds called inactive have numbers as strong as hits
# Beta apoptosis: beta cell apoptosis inhibition | 300,000 compounds, 0.8% hits | INS-1E cytokine-induced death, ATP luminescence, 48 h; percent of positive-control rescue, neutral wells zero | protection from apoptosis, % (no concentration beside the values);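 active = all replicates at 75% or more, or half of them and the mean; inconclusive = half reach 75% but not the mean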;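 note: 0% = cytokine-treated negative control wells and 100% = positive control rescue; higher means more ATP so stronger rescue from cytokine killing; wells of about 40 µL received 100 nL stock; the first replicate is given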
# FGF22 binding: shifts melting point of recombinant human FGF22. Q9HCT0. recombinant FGF22 thermal shift, SYPRO orange fluorescence; percent of sucrose octasulfate shift, DMSO zero. calls only at 9.99 µM. 340,000 compounds, 1.5% hits. AID 651658;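 active = melting point raised past a set limit in the mean and every replicate; inconclusive = no clear call; three in four hits are not shown here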
# Target sequence (Q9HCT0 whole entry, looked up): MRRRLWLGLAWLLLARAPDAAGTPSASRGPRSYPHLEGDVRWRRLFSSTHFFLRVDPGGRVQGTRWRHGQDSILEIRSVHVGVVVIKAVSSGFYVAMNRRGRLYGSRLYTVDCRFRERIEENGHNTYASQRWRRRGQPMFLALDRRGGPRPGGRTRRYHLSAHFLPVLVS
# E coli growth: inhibitors of Escherichia coli growth; OD600, 23 h; stronger effect = lower value; OD600 absorbance (no concentration beside the values); 330,000 compounds, 0.21% hits; AID 1053175;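 active = OD600 absorbance below the run mean of sample wells minus 3.6 SD, in any replicate, cut at about 0.56 in these data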;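 note: stock transfer was 300 nL into about 60 µL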
# UCH37 DUB inh: inhibitors of human deubiquitinating enzyme UCH37. purified proteasome/UCH37, Ub-AMC cleavage fluorescence. inhibition, % (test concentration not listed). 330,000 compounds, 0.33% hits. AID 588478;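 active = mean of two replicates above 20%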;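 note: 0% = compound-free wells with enzyme and 100% = wells lacking proteasome; stock transfer was 100 nL into about 20 µL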
# Target sequence (Q9Y5K5 whole entry, looked up): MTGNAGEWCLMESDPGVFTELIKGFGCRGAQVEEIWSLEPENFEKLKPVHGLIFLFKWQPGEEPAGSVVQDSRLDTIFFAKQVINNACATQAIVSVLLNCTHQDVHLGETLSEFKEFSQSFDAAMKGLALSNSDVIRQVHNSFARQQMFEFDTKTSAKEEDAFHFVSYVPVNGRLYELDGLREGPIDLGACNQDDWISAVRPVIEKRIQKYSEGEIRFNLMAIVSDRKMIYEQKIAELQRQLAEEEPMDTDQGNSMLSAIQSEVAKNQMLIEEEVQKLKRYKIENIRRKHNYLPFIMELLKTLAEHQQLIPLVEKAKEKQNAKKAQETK
#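 Test system – human UCH37 enzyme supplied as purified proteasome complex · Incubation – 30 min preincubation with enzyme, 25 min cleavage at room temperature · Detection – AMC fluorescence from Ub-AMC cleavage, excitation 355 nm, emission 460 nm · Benchmarks – no-proteasome wells (full inhibition) and compound-free wells (no inhibition)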
# MLL AF4-AF9 inh: MLL-AF4/AF9 protein interaction inhibition | 350,000 compounds, 0.47% hits | P42568 | AID 651704 | inhibition, % at 10 µM | AlphaScreen, biotin-AF4 peptide binding to FLAG-AF9;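 active = every replicate reaching a set inhibition limit, whatever the replicate mean, cut at about 25% in these data; inconclusive = mean inhibition reaches that limit but some replicates miss it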;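 note: 0% = plate neutral control median and 100% = total signal loss; the record names both 10 and 1 µM as test concentration; the first replicate is given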
# Target sequence (P42568 whole entry, looked up): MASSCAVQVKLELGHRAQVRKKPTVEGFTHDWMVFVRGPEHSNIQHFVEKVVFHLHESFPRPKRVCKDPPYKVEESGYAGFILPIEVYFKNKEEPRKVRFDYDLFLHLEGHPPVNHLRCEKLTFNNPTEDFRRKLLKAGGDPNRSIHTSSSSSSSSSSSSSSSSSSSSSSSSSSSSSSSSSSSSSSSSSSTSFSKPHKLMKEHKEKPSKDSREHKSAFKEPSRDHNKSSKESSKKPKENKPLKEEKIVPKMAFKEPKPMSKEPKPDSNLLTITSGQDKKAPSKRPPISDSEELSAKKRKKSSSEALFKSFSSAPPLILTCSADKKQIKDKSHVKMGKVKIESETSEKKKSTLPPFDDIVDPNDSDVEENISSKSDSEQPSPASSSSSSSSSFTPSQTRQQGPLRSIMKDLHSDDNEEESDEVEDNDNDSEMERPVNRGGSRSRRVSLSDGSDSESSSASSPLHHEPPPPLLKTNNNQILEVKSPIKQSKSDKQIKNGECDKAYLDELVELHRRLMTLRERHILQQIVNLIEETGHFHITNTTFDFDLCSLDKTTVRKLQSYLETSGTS
# A1 inh: inhibitors of the anti-apoptotic protein A1, read as caspase activation; MEF A1-2A-BIM cells, Caspase-Glo 3/7 luminescence, 3 h; percent of clofoctol response, vehicle zero; caspase activation, % (no concentration beside the values); 330,000 compounds, 0.066% hits; AID 2462;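 active = over half of replicate activation scores above 10%, or exactly half above 10 with the replicate mean above 10; inconclusive = replicate mean below 10 yet half the replicates above 10; inactive = over half of replicates below 10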;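 note: wells of about 30 µL received 50 nL stock; many hits fall short of the cut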
# T cruzi inh: blocks replication of Trypanosoma cruzi; AID 1885; T. cruzi beta-gal in NIH3T3, luminescence, 90 h; 300,000 compounds, 1.4% hits; inhibition, % (no concentration beside the values);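 active = mean inhibition across valid replicates above about 55%, limit read from the data; inconclusive = mean below that limit but half or more replicates reach it; inactive = mean below it, under half of replicates reach it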;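 note: signal also drops with host cell toxicity which is not excluded here; 0% = plate median of DMSO wells and 100% = zero luminescence signal; higher percent means less beta-gal luminescence so fewer parasites; stock transfer was 50 nL into about 50 µL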
# rRNA inh HTS OD600: recorded beside rRNA inh HTS, whose call it bears; OD600 change, %; measured here: OD600 growth;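 optical density of the mix in the first replicate; 0 = DMSO median and -100 = no signal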
# rRNA inh HTS RFP: second read-out of rRNA inh HTS, no call of its own (marks repeat the call); RFP signal change, %; measured here: RFP humanized mutant strains;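 first replicate; 0 = DMSO median and -100 = no signal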
# * hit, by the source's call; i = inactive; ? = inconclusive; · = not tested or not shown; & = joins results of further samples. These rows are one share of the data; rates above refer to the full screens.
compound,rRNA inh HTS,rRNA inh HTS OD600,rRNA inh HTS RFP,Beta apoptosis,FGF22 binding,E coli growth,UCH37 DUB inh,MLL AF4-AF9 inh,A1 inh,T cruzi inh
COc1ccc(CNC(=O)C2CC(c3cc(C(F)(F)F)cc(C(F)(F)F)c3)=NO2)cc1 (centres undefined),·,·,·,5,·,0.63,4.5,·,-0.8,-4
O=C(COC(=O)COc1ccc(Cl)cc1)NCCCc1ccccc1,7,9,0.3,-1,i,0.67,3.3,1.2,0.5,·
COc1cc(Cl)c([C@@H]2C[C@H]3CN(c4ccccc4)C(=O)[C@]34CCCN24)cc1OC,3,6,4.3,0,i,0.69,5.3,-1.9,0.2,-2
Cc1[nH]nc(SCC(=O)NCc2ccc(F)cc2)c1[N+](=O)[O-],·,·,·,-9,·,0.66,3.8,·,-0.3,5
O=C(N/N=C/c1cccc(C(F)(F)F)c1)c1ccccc1O,-4,9,-2.4,-4,i,·,·,2.2,-0.2,-13
Cc1cc(-c2ccc(C)c(S(=O)(=O)NCCC(C)N3CCCCCC3)c2)on1 (centres undefined),-3,-1,1.8,0,i,0.73,5.9,-1.0,-1.6,14
O=C(Cc1ccc(Cl)cc1)NC1CCCCCC1,-8,-3,-6.1,2,i,0.64,4.4,-2.2,0.4,3
Nc1nc(-c2ccc(Cl)cc2)cn1N,·,·,·,-6,·,0.72,-2.9,·,1.4,5
CCNC(=O)/C(C#N)=C/c1c(N2CCCCCC2)nc2ccccn2c1=O,9,11,2.6,1,i,0.67,3.4,1.7,-0.1,7
Cc1ccc(NC(=O)Cc2nnc(SCC(=O)c3ccc(Br)cc3)n2C)cc1Cl,22,9,-6.1,-1,i,0.66,1.1,1.5,0.2,-15
CCOC(=O)N1CCC(N2Cc3cccc(C(=O)NCc4ccc5c(c4)OCO5)c3C2=O)CC1,4,-6,-2.9,7,i,0.7,1.3,-35,1.1,9
CCOC(=O)C1(Cc2ccc(OC)cc2)CCN(C(=O)CCc2cnccn2)CC1,6,-2,-3.6,-1,i,0.67,-0.1,-16,1.8,-6
CC(C)(C)C(=O)C(CO)(Oc1ccc(Cl)cc1)n1cncn1 (centres undefined),·,·,·,1,·,0.71,-5.9,·,-0.1,48
CC(=O)c1ccc(N2CCN(c3ccc(C(N)=O)cc3[N+](=O)[O-])CC2)cc1,9,13,-0.9,3,i,0.68,4.4,-3.2,0.5,20
CC(C)NC(=O)c1ccccc1S(=O)(=O)c1ccccc1C#N,·,·,·,-6,·,0.71,5.6,·,?,-8
Cc1ccc(NC(=O)Cn2cc3c(n2)CCC(C)C3)cc1 (centres undefined),4,6,-0.9,-4,i,0.75,-1.2,-6.2,-0.7,-5
CCOC(=O)c1ccc(NC(=O)COc2ccccc2OC)cc1,·,·,·,-1,·,0.68,1.1,·,-0.3,-7
COc1cc(C2NC(=O)c3ccccc3O2)cc(OC)c1OC (centres undefined),·,·,·,-7,·,0.73,3.1,·,0.7,-5
CC(=O)N=c1sc(S(N)(=O)=O)nn1C,·,·,·,-3,i,0.69,4.5,-1.6&-3.6,-0.8,-4
O=C(O)CCC(=O)Nc1ccccc1C(=O)NCc1ccccc1,·,·,·,-4,·,0.72,-0.7,·,-0.3,11
CCOc1ccc2[nH]c(=O)c(CN(CC3COCCO3)C(=O)C3CC3)cc2c1 (centres undefined),·,·,·,2,·,0.73,-109,·,-1.8,-3
O=C(NCc1nc2ccccc2[nH]1)c1cccc(S(=O)(=O)N2CCCC2)c1,·,·,·,2,·,0.66,-1.7,·,-0.2,-4
O=C(Nc1ccc2nc(-c3ccc4nc[nH]c4c3)[nH]c2c1)c1cccs1,·,·,·,15,·,0.7,-0.4,·,-0.3,-8
CCn1ncc([N+](=O)[O-])c1C(=O)Nc1nc2cccc(C)c2s1,·,·,·,5,i,0.68,3.1,-4.4,-0.1,12
Cc1cccc(C)c1NC(=O)c1ccc(N2CCCC2=O)cc1,0,-13,-2.9,4,i,0.67,3.2,2.3,0.0,·
CC1CCCC(C)N1C(=O)/C=C/c1ccc(S(=O)(=O)N2CCOCC2)cc1 (centres undefined),-5,-2,-2.8,·,i,0.69,-0.9,7.9,·,·
CC1=C/C(=N\S(=O)(=O)c2ccccc2)C(C(C)C)=CC1=O,17,15,3.7,·,·,·,·,-2.4,-0.2,-1
CC(=O)NC(Cc1ccccc1)C(=O)N1CCN(C(=O)c2cccs2)CC1 (centres undefined),·,·,·,1,·,0.7,1.3,·,1.0,3
COc1ccc(C(=O)Nc2ccc3ncccc3c2)cc1,-4,7,-0.2,-1,i,0.57,0.9,0.7,-12,-5
O=c1cc(CO)occ1OCc1c(F)cccc1Cl,6,4,-0.9,-14,i,0.69,1.5,-1.1,0.5,-9
O=C(Nc1nc2ccccc2c(=O)s1)c1ccc(F)cc1Cl,14,14,0.5,-5,i,0.63,-0.4,-12,-0.7,-22
CCOc1cccc(N2C(=O)CC(N3CCN(c4ccc(S(=O)(=O)CC)cc4)CC3)C2=O)c1 (centres undefined),·,·,·,1,·,0.71,-0.9,·,0.0,-8
c1ccc(CCN2CN(CCCN3CCOCC3)c3nc4ccccc4n3C2)cc1,·,·,·,1,·,0.69,6.2,·,0.5,-5
CC(CCc1ccccc1)NC(=O)CCC1CCCC1 (centres undefined),-21*,-5.4*,-0.8*,1,i,0.65,7.5,-3.7,0.4,9
CCC1(CC)Cc2ccccc2C(Nc2c(C)n(C)n(-c3ccccc3)c2=O)=N1,·,·,·,0,·,·,-1.4,·,-0.6,7
CSC(=S)N/N=C(\C)c1ccccc1,13,15,-2.9,20,i,·,·,7.3,-1.3,51
Cn1c(=O)c(Oc2cc(Cl)cc(Cl)c2)nc2ccccc21,·,·,·,-1,·,0.71,-64,·,-0.6,13
Cc1ccc(C)c(NS(=O)(=O)c2ccc(-c3cnc(C4CC4)o3)cc2)c1,-32,-65,8.7,47,i,0.73,3.5,4.8,1.1,22
Cc1ncc([N+](=O)[O-])n1CC(=O)Nc1ccc2c(c1)OCO2,2,-3,-0.8,-5,i,0.71,4.9,-0.7,1.2,-8
CN1CCN(Cc2nnc(-c3ccccc3)o2)CC1,17,8,-0.6,-6,i,0.68,-0.4,-1.0,-0.3,6
CC(=O)C1(C)N(O)C(C)(C)C(c2cccs2)=[N+]1[O-] (centres undefined),16,13,1.0,-5,i,0.68,6.5,-1.7,-0.1,0
OC(COCc1ccc2c(c1)OCO2)CN1CCN(Cc2ccccc2)CC1 (centres undefined),·,·,·,-9,·,0.69,4.6,·,0.0,12
Cc1ccc(SCC(=O)OCC(=O)N(CC(C)C)C2CCS(=O)(=O)C2)cc1C (centres undefined),7,13,0.4,-6,i,0.67,4.5,-0.8,0.2,-10
CC1=C(C(=O)OCCOc2ccccc2)C(c2ccsc2)NC(=O)N1C (centres undefined),-32,-51,-6.5,1,i,0.66,0.1,0.7,-0.6,5
COc1ccccc1CNC(=O)COC(=O)CNS(=O)(=O)c1ccc(C)cc1,8,11,1.9,-4,i,0.68,-0.1,-1.4,0.8,-7
COc1ccc(C(c2nnnn2Cc2ccccc2)N2CCN(c3nc4ccccc4s3)CC2)cc1 (centres undefined),·,·,·,2,·,0.8,1.0,·,-0.1,64*
CCc1nc2ccc(C(=O)N(C)CC(=O)Nc3ccccc3C(F)(F)F)cc2nc1CC,5,9,1.3,-6,i,0.69,0.4,-2.4,0.4,·
Cn1ccnc1SCC(=O)c1ccc2ccccc2c1,-9,-16,-0.4,-3,i,0.63,2.5,0.3,-1.6,-3
C[C@H](CO)N1C[C@H](C)[C@@H](CN(C)C(=O)Nc2ccc(C(F)(F)F)cc2)Oc2c(NC(=O)Nc3ccccc3)cccc2C1=O,6,0,-2.9,0,i,·,2.4,1.1&1.6,0.0,·
COc1ccc(N2CCN(C(=O)c3cc(N4C(=O)C5C6CCC(C6)C5C4=O)ccc3Cl)CC2)cc1 (centres undefined),·,·,·,-1,·,0.66,0.1,·,-0.7,2
CCc1ccc(NC(=O)COC(=O)CCc2nc3cc(S(=O)(=O)N(CC)CC)ccc3n2C)cc1,·,·,·,3,·,0.7,1.0,·,-0.3,7
CC1(c2nnc(-c3ccc(Cl)cc3)o2)CC(c2cccc(Cl)c2)=NO1 (centres undefined),-8,-8,-7.9,3,i,0.66,0.1,-4.7,0.3,-16
CC(=O)NC(CC(=O)OCC(=O)N1CCc2ccccc21)c1ccccc1 (centres undefined),-3,-8,-6.9,-11,i,0.66,4.3,-2.1,0.6,0
COc1ccc(Cl)cc1N1C(=NC(=O)C2CCCO2)SC2CS(=O)(=O)CC21 (centres undefined),4,7,-1.9,-1,i,0.67,0.9,-0.5,0.2,-13
C=CCc1cccc2cc(C(=O)OCC)c(=O)oc12,·,·,·,-2,·,0.71,-19,·,0.1,-12
O=C(Nc1ccccc1F)C1CCN(C(=O)NCc2ccccc2)CC1,-2,-2,2.6,-2,i,0.6,3.6,13,-0.6,-6
CCCCOC(=O)c1ccc(NC(=O)c2cc(Cl)c(Cl)cc2C(=O)O)cc1,-14,-6,25,-5,·,0.64,1.9,-4.8,-0.3,-11
O=C(Nc1ccccc1C(=O)NCc1ccco1)c1ccccc1,·,·,·,0,·,0.74,2.0,·,0.3,-7
CC(C(=O)NC1CCCC1)N1CCN(S(=O)(=O)c2ccccc2Cl)CC1 (centres undefined),5,7,-1.0,·,i,0.68,3.0,0.7,·,·
Cc1ccccc1N=Cc1cccc(O)c1O,·,·,·,0,·,0.64,2.0,·,0.6,6

# (next part)
compound,rRNA inh HTS,rRNA inh HTS OD600,rRNA inh HTS RFP,Beta apoptosis,FGF22 binding,E coli growth,UCH37 DUB inh,MLL AF4-AF9 inh,A1 inh,T cruzi inh
CC(=O)OC(COc1ccccc1)Cn1cnc2ccccc21 (centres undefined),-2,-7,-3.8,2,·,0.69,-0.4,-1.1,-0.7,-5
Fc1ccc(OCCCCN2CCOCC2)cc1,16,14,0.4,-1,i,0.69,2.5,0.7,0.6,-4
Cc1ccc(NS(=O)(=O)c2cc(C(=O)N3CCc4ccccc4C3)ccc2Cl)cc1,-29*,1.8*,2.9*,3,i,0.68,3.7,-5.0,0.0,20
CCOc1cc(C(c2c(C)[nH][nH]c2=O)c2c(C)[nH][nH]c2=O)ccc1OS(=O)(=O)c1ccc(C)cc1,·,·,·,-4,·,0.68,18,·,1.1,3
COc1ccc2c(c1)/C(=N/OC(=O)c1cccs1)CCC2,10,4,-1.3,-17,i,·,·,2.6,0.3,-3
COc1nc(C)cc(C)c1S(=O)(=O)c1ccccc1,5,6,-0.5,-9,i,0.64,0.1,-0.1,0.2,1
CC(C)OCCCNc1ncnc2c1[nH]c1ccccc12,·,·,·,125*,·,0.63,-33,·,0.2,32

# Screens deposited in PubChem by several laboratories.
